# Ecoli rRNA inh – reduced GFP signal of wild-type E. coli, primary screen, bacterial rRNA inhibitor project, GFP/RFP fluorescence, OD600, single point; GFP signal change (wild-type ribosome), % (no concentration beside the values); E. coli WT GFP vs humanized-ribosome RFP mutants, 24 h; stronger effect = lower value; DMSO median 0, no signal -100; actives 1.6% (n = 350,000);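 active means significant combined selectivity score with lowered wild-type GFP, culture density cut under 30%, mutant RFP and density less affected; inactive means any of these conditions unmet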; further: one replicate is shown; some compounds called inactive have numbers as strong as hits
# Beta cell apopt – inhibitors of cytokine-induced beta cell apoptosis, primary screen, luminescence | INS-1E cytokine-induced death, ATP luminescence, 48 h; percent of positive-control rescue, neutral wells zero | actives 0.8% (n = 300,000) | AID 435005, 2010 | protection from apoptosis, % (concentration not given with the values);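 active means all replicates at 75% or more, or half of them and the mean; inconclusive means half reach 75% but not the mean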;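 further: 0% = cytokine-treated negative control wells and 100% = positive control rescue; higher means more ATP so stronger rescue from cytokine killing; wells of about 40 µL received 100 nL stock; the first replicate is given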
# AF4-AF9 inh – inhibitors of AF4 peptide binding to AF9, primary screen, biochemical, AlphaScreen, biotin-AF4 peptide, FLAG-AF9, single point; Protein AF-9 (Homo sapiens), P42568; inhibition, % at 10 µM; actives 0.47% (n = 350,000);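 active means every replicate reaching a set inhibition limit, whatever the replicate mean, cut at about 25% in these data; inconclusive means mean inhibition reaches that limit but some replicates miss it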;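 further: 0% = plate neutral control median and 100% = total signal loss; the record names both 10 and 1 µM as test concentration; the first replicate is given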
# Target sequence (P42568 whole entry, looked up): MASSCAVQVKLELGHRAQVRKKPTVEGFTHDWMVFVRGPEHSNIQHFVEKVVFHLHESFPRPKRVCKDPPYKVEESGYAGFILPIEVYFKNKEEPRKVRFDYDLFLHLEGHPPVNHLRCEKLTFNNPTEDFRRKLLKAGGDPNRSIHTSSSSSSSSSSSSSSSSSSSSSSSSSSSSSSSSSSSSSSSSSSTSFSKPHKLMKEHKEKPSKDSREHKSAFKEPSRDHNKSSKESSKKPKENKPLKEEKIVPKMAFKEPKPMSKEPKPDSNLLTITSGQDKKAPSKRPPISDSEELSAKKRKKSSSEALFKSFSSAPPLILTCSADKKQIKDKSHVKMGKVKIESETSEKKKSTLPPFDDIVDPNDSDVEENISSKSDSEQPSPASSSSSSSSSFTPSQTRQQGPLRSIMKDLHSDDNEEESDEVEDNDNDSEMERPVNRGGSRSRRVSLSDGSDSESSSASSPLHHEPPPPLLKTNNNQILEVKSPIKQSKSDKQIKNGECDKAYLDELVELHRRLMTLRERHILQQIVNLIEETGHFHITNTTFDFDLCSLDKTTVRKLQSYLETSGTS
# ALR inh – inhibitors of human ALR sulfhydryl oxidase, primary screen, biochemical, H2O2 detection, HRP-luminol luminescence, single point. FAD-linked sulfhydryl oxidase ALR (Homo sapiens), P55789. purified ALR, DTT oxidation. inhibition, % (concentration not given with the values). actives 3.8% (n = 290,000). AID 485317, 2010;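 active means mean and each replicate at 75% or more; inconclusive means only one of the two met; inactive means neither met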;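 further: stock transfer was 7.5 nL into about 7.5 µL; 0% = neutral wells and 100% = wells with inactivated enzyme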
# Target sequence (P55789 whole entry, looked up): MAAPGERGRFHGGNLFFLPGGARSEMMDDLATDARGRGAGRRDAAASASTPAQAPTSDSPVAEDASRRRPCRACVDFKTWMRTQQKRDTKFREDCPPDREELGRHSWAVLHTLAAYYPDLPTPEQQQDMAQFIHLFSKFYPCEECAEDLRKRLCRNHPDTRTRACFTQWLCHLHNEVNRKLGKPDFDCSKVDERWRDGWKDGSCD
# RanGTP-Imp inh – inhibitors of RanGTP-importin-beta interaction, primary screen, biochemical, FRET, CFP-Ran, YFP-importin-beta, homogeneous. cell-free CFP-Ran/YFP-importin-beta FRET ratio. inhibition, % (concentration not given with the values). actives 1.1% (n = 300,000). Ran GTPase (GTP-bound) - importin-beta complex;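 active means most replicates above 15%; inconclusive means exactly half above 15%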;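 further: 0% = DMSO wells and 100% = Ran loaded with GDP instead of GTP; wells of about 40 µL received 100 nL stock; the first replicate is given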
# T cruzi inh – inhibitors of intracellular T. cruzi growth, primary screen, luminescence, NIH3T3 host cells. T. cruzi beta-gal in NIH3T3, 90 h. inhibition, % (no concentration beside the values). actives 1.4% (n = 300,000). AID 1885, 2009;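 active means mean inhibition across valid replicates above about 55%, limit read from the data; inconclusive means mean below that limit but half or more replicates reach it; inactive means mean below it, under half of replicates reach it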;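 further: signal also drops with host cell toxicity which is not excluded here; 0% = plate median of DMSO wells and 100% = zero luminescence signal; higher percent means less beta-gal luminescence so fewer parasites; stock transfer was 50 nL into about 50 µL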
# FGF22 binding – binders of human FGF22 protein, primary screen, FGF22 synaptogenesis inhibitor project, biophysical, thermal shift, single point; Fibroblast growth factor 22 (Homo sapiens), Q9HCT0; recombinant FGF22 thermal shift, SYPRO orange fluorescence; percent of sucrose octasulfate shift, DMSO zero; calls only at 9.99 µM; actives 1.5% (n = 340,000);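 active means melting point raised past a set limit in the mean and every replicate; inconclusive means no clear call; three in four hits are not shown here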
# Target sequence (Q9HCT0 whole entry, looked up): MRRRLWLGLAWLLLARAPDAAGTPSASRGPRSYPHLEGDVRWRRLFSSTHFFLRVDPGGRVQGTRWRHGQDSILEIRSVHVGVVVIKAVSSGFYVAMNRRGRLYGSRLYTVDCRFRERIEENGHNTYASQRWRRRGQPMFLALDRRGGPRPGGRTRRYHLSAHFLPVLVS
# Calb FLC – C. albicans growth inhibition with fluconazole, primary screen, CaCi-2 strain, Alamar Blue fluorescence; C. albicans CaCi-2 (fluconazole-resistant clinical isolate) + fluconazole, 48 h; growth inhibition, % (no concentration beside the values); actives 0.57% (n = 300,000);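 active means most replicates above 75%; inconclusive means exactly half above 75%; inactive means most below 75%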;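 further: all wells also contain fluconazole at 8 µg/ml as a sub-toxic cotreatment; 0% = median of DMSO wells and 100% = median of geldanamycin control wells; wells of about 8 µL received 7.5 nL stock; the first replicate is given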
# Ecoli rRNA inh OD600 – second read-out of Ecoli rRNA inh, no call of its own (marks repeat the call); OD600 change, %; measured here: OD600 growth;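 optical density of the mix in the first replicate; 0 = DMSO median and -100 = no signal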
# Ecoli rRNA inh RFP – further read-out of Ecoli rRNA inh, marked with its call; RFP signal change, %; measured here: RFP humanized mutant strains;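 first replicate; 0 = DMSO median and -100 = no signal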
# Active calls of the source: *; i = inactive; ? = inconclusive; nt = no result given; & = joins results of further samples. An excerpt; the hit share may differ from the screen's.
# Values run as follows: Ecoli rRNA inh	Ecoli rRNA inh OD600	Ecoli rRNA inh RFP	Beta cell apopt	AF4-AF9 inh	ALR inh	RanGTP-Imp inh	T cruzi inh	FGF22 binding	Calb FLC
COc1ccc(-c2nnc3sc(CCN4C(=O)c5ccccc5C4=O)nn23)cc1
  nt	nt	nt	-2	nt	4	-0.7	-12	nt	4
COc1ccc(-n2cnc3cc(NC(=O)c4ccco4)ccc32)cc1
  nt	nt	nt	3	nt	2	1.6	-3	nt	28
CCC(C(=O)Nc1ccccn1)c1ccccc1 (stereo not given)
  6	-1	-0.4	-1	-1.9	2	0.4	12	i	-6
CCOC(=O)C(C#N)c1ccccn1 (stereo not given)
  nt	nt	nt	-2	nt	16	?	-21	nt	15
O=C(COC(=O)c1ccco1)NCc1ccc(F)cc1
  16	19	0.9	-14	-0.9	-3	0.1	-20	i	-14
O=[N+]([O-])c1ccc(NC(=S)NCc2ccc(F)cc2)cc1
  -57	-79	-15	nt	15	-2	2.5	25	i	-84
COc1cc(C)c(N(C(C)=O)c2ccccc2)c(C)c1
  nt	nt	nt	-10	nt	-2	0.5	10	nt	-4
CC(c1ccccc1)c1nnc(NC(=O)Nc2ccccc2)s1 (stereo not given)
  -5	-1	-4.7	-5	1.9	-2	-2.1	4	i	-15
COc1ccc(-n2c3c(cc(C(=O)Nc4cccc(C)n4)c2=O)C(=O)CC(C)(C)C3)cc1
  4	3	-0.9	-3	0.0	7	nt	nt	i	-7
C/C(CC(O)(/C=N/O)c1ccccc1)=N\O (stereo not given)
  nt	nt	nt	0	nt	-7	-5.5	0	nt	-17
COc1ccc(CCNCc2c(-c3ccccc3)n(C)c3ccccc23)cc1
  -69	-82	-23	19	?	-5	-8.0	12	i	-2
COCCCNC(c1ccccc1)c1ccncc1 (stereo not given)
  nt	nt	nt	nt	nt	0	?	3	nt	-4
CN(C)c1nc(-c2ccccc2)cc(C(F)(F)F)c1C#N
  nt	nt	nt	2	nt	14	29*	3	nt	2
C[C@H](CO)N1C[C@H](C)[C@@H](CN(C)S(=O)(=O)c2cccs2)Oc2ccc(NC(=O)Nc3ccccc3)cc2C1=O
  -4&-4	-9&-6	5.2&3.5	-1	4.6	nt	nt	nt	i	nt
CC(C)(C)NC(=O)C(c1ccc(O)cc1)N(C(=O)CCC(=O)Nc1nccs1)c1ccc(F)cc1 (stereo not given)
  -1	2	4.2	-4	1.7	-1	?	-6	i	-3
N#CC1(NC(=O)COc2ccc3oc4ccccc4c3c2)CCCCC1
  nt	nt	nt	-5	0.1	1	-1.2	-5	i	-1
CCC(C)(C)c1ccc(OC(=O)c2cccnc2Cl)cc1
  1	3	2.1	1	1.2	6	-2.7	-4	i	13
O=C(CSc1nnc(CNc2ccc(Cl)cc2)n1Cc1ccccc1)NCc1ccco1
  nt	nt	nt	-2	nt	10	-3.1	10	nt	17
COc1cc(OC)cc(-c2c(-c3cccs3)c3cc(-c4ccc5cc[nH]c5c4)ccc3n2C)c1
  1	10	-5.3	2	-1.3	1	nt	nt	i	nt
Cc1cc(Oc2nc3ccccn3c(=O)c2/C=C(\C#N)C(=O)NC2CCS(=O)(=O)C2)ccc1Cl (stereo not given)
  -1	1	1.5	6	2.1	15	59*	-11	i	-1
CCCCOc1ccc(Cl)cc1CSc1nncn1N
  nt	nt	nt	-7	nt	-7	0.0	4	nt	4
CC1CCCN(C(=O)COc2ccc3c(c2)OCO3)C1 (stereo not given)
  4	5	-0.6	-10	-0.9	-12	2.2	-3	i	19
CC1(C)CC(NC(=O)COc2ccc([N+](=O)[O-])cc2)CC(C)(C)N1
  9	12	-3.0	nt	-0.4	-8	-1.4	-1	i	-15
CC1CCN(CCCNC(=O)CN2C(=O)CSc3ccc(S(=O)(=O)N4CCC(C)CC4)cc32)CC1
  0	0	0.3	0	3.0	1	2.0	19	i	7
Cc1cc(NS(=O)(=O)c2ccc(NS(=O)(=O)c3ccc(Br)cc3)cc2)no1
  -3	7	-5.2	-2	-2.6	4	6.5	-8	i	4
CCCCCN=C(C)c1c(O)c2ccccc2oc1=O
  nt	nt	nt	20	nt	-2	0.0	9	nt	21
Cc1cc(C(=O)CN2C(=O)c3ccccc3C2=O)c(C)n1C1CC1
  6	-1	-4.6	12	-5.1	-3	-1.2	9	i	13
Cc1cccc(NC(=O)c2cccc(S(=O)(=O)N3CCc4ccccc4C3)c2)n1
  -4	0	1.0	-13	-29	9	-1.0	23	i	-1
NC(=O)C(c1ccc(F)cc1)c1ccc(C(=O)c2ccccc2)cc1 (stereo not given)
  -10	-8	3.1	1	-2.4	-2	4.6	-1	i	-9
CC(C)(C)c1nc(N)nc(=O)[nH]1
  23	6	0.6	0	-3.8	1	3.5	-19	i	-4
CC(Oc1ccc2c(-c3ccccc3)cc(=O)oc2c1)C(=O)NC(Cc1c[nH]c2ccc(O)cc12)C(=O)O (stereo not given)
  nt	nt	nt	1	-0.2	10	1.1	11	i	2
CCOC(=O)c1ncn2c1C(=O)OC2(C)C
  9	10	1.6	-1	nt	5	-1.0	-15	nt	-2
CC(C)CNC(=O)CCc1nc(-c2ccccc2)no1
  8	5	1.6	-7	-1.3	8	0.4	nt	i	-16
CCOc1ccc(/C=N/NC(=O)NC23CC4CC(CC(C4)C2)C3)cc1O
  -39	-37	-0.6	6	9.8	99*	6.7	2	i	5
CCc1cc2cccc(C)c2nc1SCC(=O)NC1CCCC1
  8	9	-1.5	-1	-4.4	10	?	5	i	2
CC(=O)Nc1ccc(SCC(=O)OCC(=O)NC(=O)NCCC(C)C)cc1
  6	9	1.4	-7	-0.4	-10	-3.1	-19	i	4
Cc1nc2c(-c3ccc(F)cc3)c(C)nn2c(C)c1CCC(=O)N1CCOCC1
  -5	-7	-4.5	nt	4.6	-8	0.5	6	i	6
CSc1ccccc1NC(=O)CSCc1ccc(Br)cc1
  nt	nt	nt	-3	nt	-19	1.0	-2	nt	?
COc1cc(OC)c2c(c1C(CCN1CCOCC1)c1ccc(N(C)C)cc1)OC(=O)CC2c1ccc(N(C)C)cc1 (stereo not given)
  1	0	2.0	2	65*	nt	-1.3	-4	i	-5
Cc1ccc(OC(=S)Nc2ccc(F)cc2)cc1
  nt	nt	nt	-2	nt	13	-7.5	-5	nt	2
CCOc1ccccc1N=Nc1c(C)[nH]n(-c2ccccc2)c1=O
  nt	nt	nt	-5	nt	-6	5.5	17	nt	0
COCCCn1c(CCC(=O)O)ccc1-c1ccc(F)cc1
  nt	nt	nt	2	nt	22	1.6	-6	nt	4
Cc1c(NC(=S)N/N=C/c2ccc(Br)cc2)c(=O)n(-c2ccccc2)n1C
  -7	1	1.5	-7	2.0	nt	8.5	4	i	-4
COc1cc(OC)cc(C(=O)NC2=NCCS2)c1
  nt	nt	nt	0	nt	-3	4.5	-6	nt	-3
CCOC(=O)Cc1csc(SCC(=O)Nc2cc(Cl)ccc2Oc2ccccc2)n1
  nt	nt	nt	-5	nt	-10	2.2	-24	nt	-9
CCN1CCN(c2ccc(S(=O)(=O)N3CCCCC3)cc2NC(=O)COc2cc(C)ccc2Cl)CC1
  nt	nt	nt	8	nt	nt	3.7	52	nt	-5
CC(=O)N1CCN(c2ccccc2NC(=O)c2cc(Br)ccc2Cl)CC1
  nt	nt	nt	-2	nt	2	1.7	-6	nt	-4
CCCC(C(=O)NC1=NCCS1)c1ccccc1 (stereo not given)
  -15	-9	-4.3	-3	-0.1	-5	-2.6	5	i	?
C=CCn1cc(C(=O)N2CCN(CC)CC2)c(=O)c2cc(S(=O)(=O)N(CC)CC)ccc21
  -2	-2	-0.5	nt	45*	0	-0.7	-3	i	1
CC(=O)Nc1ccc(NC(=O)C(C)OC(=O)c2ccc(S(=O)(=O)N3CCCCC3)cc2)cc1 (stereo not given)
  12	11	0.9	-1	-2.4	14	nt	nt	i	nt
CC1(C)CC(C(CC(=O)N2CCCC2)Cc2ccccc2)CCO1 (stereo not given)
  2	5	-2.9	1	2.0	-6	10	-2	i	1
COc1ccc(C2CC(c3cccs3)=NN2C(=O)c2ccccc2)cc1OC (stereo not given)
  -5	-12	-1.5	-6	14	-9	-2.0	-6	i	-7
Cc1ccc(CN2CCN(Cc3cc(=O)c4ccccc4[nH]3)CC2CCO)o1 (stereo not given)
  16	6	4.0	-4	-0.4	-1	1.5	23	i	12
COc1ccc(NC(=O)CSc2nc3ncccc3[nH]2)cc1OC
  nt	nt	nt	nt	nt	96*	-1.0	-3	nt	-20
CCN(CC)C(=O)[C@H]1CC(CC(=O)NC(C)(C)C)C(=O)N2CCc3c([nH]c4ccccc34)[C@]12C (stereo not given in full)
  6	2	6.2	-3	-0.3	1	nt	nt	i	nt
COc1ccc2c(c1)OC1(C)CC2C(C(=O)c2ccccc2OC)C(=O)N1 (stereo not given)
  9	8	-0.5	0	49*	39	-2.0	-1	i	-6
CSc1oc(-c2ccco2)nc1S(=O)(=O)c1ccc(F)cc1
  12	13	6.6	-6	1.2	-6	2.3	4	i	0
COc1ccc(CCNC(=O)c2ccc3c(c2)NC(=O)CS3)cc1OC
  -3	-3	1.5	2	-2.1	2	2.7	2	i	-2
COc1ccc(S(=O)Cc2ccc(C(=O)NCc3cccc(OC)c3)o2)cc1 (stereo not given)
  2	-20	-7.7	-4	-1.7	2	?	3	i	-17
Cc1nc2[nH]c(=S)n(C)c(=O)c2nc1C
  2	3	-3.1	-3	-5.2	45	7.5	-12	i	9

# (more compounds)
# Values run as follows: Ecoli rRNA inh	Ecoli rRNA inh OD600	Ecoli rRNA inh RFP	Beta cell apopt	AF4-AF9 inh	ALR inh	RanGTP-Imp inh	T cruzi inh	FGF22 binding	Calb FLC
COc1ccc(/C=C2\SC(=S)N(C(C)C(=O)NC3C=CS(=O)(=O)C3)C2=O)cc1 (stereo not given)
  -16	-5	0.1	-5	-2.5	98*	1.2	-22	i	-6
CCOC(=O)Cc1nnc(Nc2ccc(C)cc2)c2ccccc12
  nt	nt	nt	8	nt	-4	1.9	8	nt	?
O=C(Cc1ccc(F)cc1)N1CCN=C1SCc1ccc([N+](=O)[O-])cc1
  -10	-5	-4.8	-9	1.9	99*	0.1	6	i	7
S=C(NCc1ccccc1)NCc1ccccn1
  17	3	7.2	-2	7.0	4	-2.8	10	i	-5
Cc1cc(-n2c(SCc3ccccc3F)nc3n[nH]c(C)c3c2=N)ccc1Cl
  11	15	-2.6	-12	-0.5	-2	3.7	52	i	-54
COc1ccc(N2CCN(C(=O)CCS(=O)(=O)c3ccc4c(c3)NC(=O)C(C)S4)CC2)cc1 (stereo not given)
  13	11	1.8	4	-5.5	7	-0.3	11	i	-3
